HPGD inh = HPGD (human) dehydrogenase inhibition | P15428 | purified HPGD, NADH fluorescence kinetic, PGE2 substrate | Potency, µM, without a hit: at the top dose activity change, negative = inhibition, most hits filed as inhibitors | hit rate 4.3% among 150,000 | AID 894; active = well fitted inhibition curve with a large enough effect (not every such curve was filed as active); inconclusive = small, poorly fitted or top-dose-only effect, or another doubt; inactive = no such curve, though single readings can be large or run the other way;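 further: top concentration of the series not given in the record; plate controls included wells without enzyme; inactives centre near -10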
Target sequence (P15428 whole entry, looked up): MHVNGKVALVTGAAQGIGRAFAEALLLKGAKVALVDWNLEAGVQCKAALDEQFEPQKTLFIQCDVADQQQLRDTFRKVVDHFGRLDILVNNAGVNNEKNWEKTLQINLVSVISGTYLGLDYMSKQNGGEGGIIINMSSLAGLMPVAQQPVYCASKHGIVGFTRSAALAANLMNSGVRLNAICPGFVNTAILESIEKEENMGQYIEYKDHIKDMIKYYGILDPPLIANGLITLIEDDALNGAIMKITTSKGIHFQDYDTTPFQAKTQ
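20 nM HPGD preincubated 15 min at room temperature with compound in 50 mM Tris-HCl pH 8, 0.01% Tween 20. Started with 1 mM NAD+ and 30 uM prostaglandin E2; NADH fluorescence (360/450 nm) read 5 times over 30-s intervals, last minus first.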
Numbers without * were called inactive; ? = inconclusive; & = joins results of further samples. On the % scale 0 is the no-effect control and ±100 the full control effect; potency means the concentration at half of the fitted maximal effect.

SMILES	HPGD inh
COc1cccc(CN2C(=O)c3ccccc3C2C(=O)NCC2CCCO2)c1 (stereo unspecified)	-6.3%
[O-][n+]1onc2c1CCc1nnc(-c3ccccc3)cc1-2	-14.2%
Cc1cccnc1NC(=S)NC(=O)c1cccs1	-13.8%
Cc1noc(C)c1C(=O)OCC(=O)Nc1ccccc1Oc1ccccc1	-6.5%
COc1ccc(C)cc1NS(=O)(=O)c1cc(C)ccc1C	-4.9%
COc1ccc(C2CCCN2C(=O)Nc2ccc(C)c(C)c2)cc1OC (stereo unspecified)	-7.4%
COc1cccc(/C=c2\sc3nc(-c4cccs4)nn3c2=O)c1OC	14.1µM*
CCOC(=O)CC(NC(=O)c1ccco1)c1ccc(C)cc1 (stereo unspecified)	-4.6%
CC(C)C(c1nnnn1Cc1ccccc1)N(Cc1ccco1)Cc1cccs1 (stereo unspecified)	-5.7%
CN(C)c1nc(-c2ccc([N+](=O)[O-])cc2)cs1	-9.2%
CCCCNC(=O)CCCCC(=O)N/N=C/c1cccc(Cl)c1	-14.4%
Cc1ccc(NC(=O)c2c([N+](=O)[O-])c(C(C)(C)C)nn2C)cc1	-3.1%
COC(=O)c1cc(S(=O)(=O)N2CCOCC2)c(N2CCOCC2)cc1N1CCOCC1	-2.2%
Nc1c(C(=O)NCCN2CCOCC2)c2nc3ccccc3nc2n1-c1ccc2c(c1)OCO2	?
CC(=O)CC(=O)Nc1ccc2ccccc2c1	-3.2%
Cc1cc(C(=O)COc2ncnc3sccc23)c(C)n1C1CC1	-10.3%
O=C(Cn1cnc2c(nnn2Cc2ccc(Cl)cc2)c1=O)NCc1ccco1	15.8µM*
COc1ccc(NC(=O)c2noc3c2CCC3)cc1	-25.7%
Cc1ccc(-c2ccc(=O)[nH]n2)cc1	-4.6%
Nc1ccc(O)c2c1C(=O)c1ccccc1C2=O	12.6µM*
CC1(C)CC(=O)C(C=NCC(N)=O)=C(O)C1	-2.1%
Cc1ccc(C)c(NC(=O)/C(C#N)=C/c2ccc(Sc3nncn3C)c([N+](=O)[O-])c2)c1	-10.2%
Cc1ccc2c(c1)N(C(C)C(=O)NCCc1ccccc1)C(=O)CO2 (stereo unspecified)	-0.6%
O=C(Nc1ccc(Cl)cn1)c1ccc2ccccc2n1	-9.7%
CCc1cc(=O)oc2cc(OC(C)=O)cc(OC(C)=O)c12	20.4%
COCC(=O)N1CCC[C@@]2(CCN(C(=O)Nc3ccc(OC)cc3)C2)C1	-5.6%
O=C1CC(N2CCN(c3ccccc3)CC2)C(=O)N1c1ccc2c(c1)OCCO2 (stereo unspecified)	0.3%
O=C(CN1c2cccc3cccc(c23)S1(=O)=O)NCc1ccc2c(c1)OCO2	?
C=CCOC(=O)N[C@@H](c1ccc(Br)cc1)C(C(C)=O)C(C)=O	-10.2%
COc1ccc(/C=N/NC(=O)CCc2ccccc2)cc1O	-15.4%
O=C(c1ccccc1Cl)N1CCc2ccccc2C1	4.47µM*
Cc1ccc(NC(=O)Cn2nc(C)c3ccccc3c2=O)cc1F	-9.1%
CCOC(=O)c1oc2nc(C)c3c(c2c1N)CC(C)(C)OC3	?
COc1ccc(-c2c(C)oc3c(CN4CCCCC4C)c(O)ccc3c2=O)cc1OC (stereo unspecified)	?
CCc1nnc(NC(=O)CSc2nnc(C)n2-c2ccc(C)cc2)s1	-10.0%
COc1ccc(N(CC(=O)Nc2cccc(C)c2C)S(=O)(=O)c2c(C)n[nH]c2C)cc1	2.7%
CC(C)(C)NC(=O)CN1CCC(O)(c2ccccc2)CC1	0.3%
CCN(CCCNC(=O)COc1cc(=O)n(CC)c2ccccc12)c1ccccc1	-11.5%
O=C(COc1ccc(Cl)cc1)N1CCN(S(=O)(=O)c2ccccc2)CC1	-1.1%
CC(CNC(=O)C(=O)NC(C)CCc1ccccc1)Cc1ccccc1 (stereo unspecified)	-4.0%
CNc1cnn(-c2ccc(C)cc2)c(=O)c1Cl	-3.8%
CCC(=O)OCC(=O)C1(OC(=O)CC)C(C)CC2C3CCC4=CC(=O)C=CC4(C)C3(Cl)C(O)CC21C (stereo unspecified)	-6.7%
Cc1[nH]nc(-c2ccc(OCc3cnn(-c4ccccc4)c3)c(C)c2O)c1Oc1ccccc1	-11.2%
COc1ccc(OC)c(NC(=S)N2CCN(c3ccccn3)CC2)c1	-3.3%
Cc1cc(NC(=O)CCSc2nc(-c3ccco3)cc(C(F)(F)F)n2)n(-c2ccccc2)n1	-11.5%
COc1ccccc1S(=O)(=O)n1cc(Cc2ccccc2)c(N)n1	-6.1%
CN(C)C(=O)C(CCN1CCC(O)(c2ccc(Cl)cc2)CC1)(c1ccccc1)c1ccccc1	4.7%&0.9%&-0.5%&4.4%&-3.5%
COc1ccc2nc(/N=C/c3c(C)[nH]n(-c4ccc(C)cc4C)c3=O)sc2c1	?

Pulled one by one from above:
SMILES	HPGD inh
CCOC(=O)c1oc2nc(C)c3c(c2c1N)CC(C)(C)OC3	?
COc1ccc(OC)c(NC(=S)N2CCN(c3ccccn3)CC2)c1	-3.3%
COc1ccc(/C=N/NC(=O)CCc2ccccc2)cc1O	-15.4%
COc1cccc(/C=c2\sc3nc(-c4cccs4)nn3c2=O)c1OC	14.1µM*
CC(CNC(=O)C(=O)NC(C)CCc1ccccc1)Cc1ccccc1 (stereo unspecified)	-4.0%

New compounds follow.
SMILES	HPGD inh
COC(=O)c1ccc(OC)cc1OCC(=O)N1CCN(c2ccc(F)cc2)CC1	-5.8%
CCOC(=O)c1ccc(CNC(=O)CSc2nnnn2-c2ccc(Cl)cc2)o1	6.7%
O=C(Nc1ccc2c(c1)OCO2)c1cccs1	25.1µM*
CCOC(=O)N1CCC(NC(=O)c2ccc3c(c2)N(C)CCS3)CC1	?
O=C(c1ccc(CS(=O)(=O)c2ccc(Br)cc2)o1)N1CCCCCC1	0.8%
Oc1oc(-c2ccccc2)nc1/C=N/c1nccs1	-13.6%
O=C(NCCO)c1cc2c(s1)CCC2	-19.1%
COc1ccc(/C=C/c2cc(OC)cc(=O)o2)cc1	-17.0%
CCN1CCN(c2ccc(NC(=O)c3ccc4c(c3)[nH]c(=O)n4Cc3ccc(F)cc3)cc2)CC1	?
COc1cc(C(=O)Nc2ccc(Br)cc2C(=O)c2cc(OC)c(OC)c(OC)c2)cc(OC)c1OC	-12.6%
Cn1c(N)c(C(=O)COC(=O)C2(c3ccccc3F)CCCC2)c(=O)n(C)c1=O	-11.8%
CCCCOc1ccc(-c2c(C#N)c(N)nc(SCC(N)=O)c2C#N)cc1	28.2µM*

Exported with each value named: entries from further up
COc1ccc(/C=N/NC(=O)CCc2ccccc2)cc1O
  HPGD inh: -15.4%

O=C(c1ccccc1Cl)N1CCc2ccccc2C1
  HPGD inh: 4.47µM*

Cc1ccc(NC(=O)Cn2nc(C)c3ccccc3c2=O)cc1F
  HPGD inh: -9.1%

CCOC(=O)c1oc2nc(C)c3c(c2c1N)CC(C)(C)OC3
  HPGD inh: ?

Later entries
SMILES	HPGD inh
O=C(Nc1ncc(Cc2cccc(Cl)c2Cl)s1)c1ccc([N+](=O)[O-])cc1	-3.6%
Cc1ccc(C(C(=O)NC2CCCC2)N(Cc2ccc(F)cc2)C(=O)c2csnn2)o1 (stereo unspecified)	-6.3%
COC(=O)C1=C(C)N(Cc2ccco2)C(=O)C1	-16.4%
CCSC1=C(C#N)C(c2ccc(C)s2)CC(=O)N1 (stereo unspecified)	-9.4%
NCCc1nc(-c2nc(C(=O)O)cs2)cs1	-6.4%
Cn1cccc1CC(=O)NNC(=S)Nc1ccc(Cl)cc1	-29.1%
Cc1noc2ncnc(Sc3ccc(Cl)cc3)c12	-11.8%
O=C(CSc1ncccn1)NN=C1CCCCCCC1	-1.1%
Clc1ccccc1CNc1ncnc2nc[nH]c12	-5.1%
CCc1ccc(-n2c(C)cc(/C=N/NC(=O)OC)c2C)cc1	-9.8%
COc1cccc(NC(=O)N2CCCC2C(=O)NC(C)C)c1 (stereo unspecified)	-11.8%
CCCC1(CCC)NC(=O)N(CC(=O)Nc2cccc(OC)c2)C1=O	-3.9%
CCOC(=O)c1cc(NC(=O)c2c(C)noc2C)cc(C(=O)OCC)c1	-5.1%
N#Cc1nc(-c2ccccc2Cl)oc1N1CCCCC1	?
C[C@H](N)c1nnc(SCC(=O)N(C)C)o1	-1.5%
Clc1ccc(CN2CCCN(Cc3ccc(Cl)cc3)C2c2cc3ccccc3c3ccccc23)cc1	-15.3%
O=C(c1cccc(S(=O)(=O)NCc2ccccc2)c1)N1CCN(Cc2ccccc2)CC1	-9.8%
CCn1nnc(NC(=O)c2c(OC)cccc2OC)n1	-13.4%
CCOC(=O)c1cnc2c(C)cccc2c1NCc1ccco1	-14.1%
O=C(Cn1nnc2ccccc21)N/N=C\C=C\c1ccccc1	-27.8%
CC(CCc1ccccc1)N1CCN(Cc2ccccc2)CC1 (stereo unspecified)	3.6%
COc1ccccc1N1CCN(C[C@@H](C(=O)NC(C)(C)C)c2ccccc2)CC1	-11.2%
CCCCCCCCCCCCCCC(C(=O)O)C(O)(CC(=O)OC)C(=O)O (stereo unspecified)	15.8µM*
Cc1ccc2c(c1)c1c(n2CC(O)Cn2nc(C)c(Br)c2C)C(=O)CCC1 (stereo unspecified)	?
Cc1cc2ccccc2n2c(SCC(=O)Nc3ccc(S(=O)(=O)N4CCC(C)CC4)cc3)nnc12	-17.6%
FC(F)(F)c1cc(-c2cccs2)nc(-n2cc(Cl)cn2)n1	?
COCC(=O)N1CCC2(CC1)CN(C(=O)Nc1cccc(C#N)c1)C2	-7.3%
COC(=O)CN(C(=S)Nc1ccccc1)C1CC(=O)N(c2ccc(OC)cc2)C1=O (stereo unspecified)	-11.2%
C=CCOc1ccc2c(c1)C(=NO)c1cc(OCC=C)ccc1-2	-14.8%
Cc1cccc(NC(=S)NC(NC(=O)OCc2ccccc2)C(Cl)(Cl)Cl)c1 (stereo unspecified)	-8.4%
O=C(CN1C(=O)c2ccccc2S1(=O)=O)NCc1ccccc1Cl	-7.3%
Cc1ccc(OCC(=O)N/N=C/C=C/c2ccco2)cc1C	-10.7%
CCOC(=O)C1C(=O)NC(C)C1c1ccccc1 (stereo unspecified)	-0.3%
COc1ccc(Cl)cc1-c1n[nH]c(=S)n1C1CCCCC1	10µM*
COc1ccccc1N1CCN(CCCCOc2cccc3ccccc23)CC1	-9.1%
Cn1c(NC(=O)CC(C)(C)C)cc(=O)n(C)c1=O	-11.8%
CSc1cnn(Cc2ccccc2)c(=O)c1SCc1ccccc1	?
CC1CN(S(=O)(=O)c2ccc(NC(=O)c3cc(-c4ccccc4O)n[nH]3)cc2)CC(C)O1 (stereo unspecified)	14.1µM*
COc1ccc(Cl)cc1NC(=O)NCCCl	-4.0%
COC(=O)c1c(NC(=O)c2ccc(Br)s2)sc2c1CCC2	-24.5%
COC(=O)C1(C(=O)OC)C[C@@H]2CON=C2[C@H]1c1ccccc1	-10.8%&-0.5%
CC1CCN(c2oc(-c3ccccc3F)nc2C#N)CC1	?
O=C(c1ccc(Cl)cc1)N1CCCCC(Sc2nnc(-c3ccc4c(c3)OCO4)o2)C1=O (stereo unspecified)	-1.4%
COc1cccc(-c2cc(C(F)(F)F)nc(-n3cc(Cl)cn3)n2)c1	?
O=C(N/N=C/c1cccnc1)c1cc2c(ccc3ccccc32)o1	?
CC(C)(C)c1cc(/C=N/O)cc(C(C)(C)C)c1O	-14.0%
CCOC(=O)Cc1cc(=O)c2c(=O)n(-c3ccccc3)[nH]c2[nH]1	-5.3%
CCOC(=O)c1ccc(NC(=O)Cn2ncc(Cl)c(Cl)c2=O)cc1	-9.8%
COC(=O)c1c[nH]n2c(=O)c(Cl)c(C)nc12	-11.2%
COc1ccc(/C=C/C(=O)c2nc3ccccc3n2CC(=O)c2ccc(OC)cc2)cc1	-17.6%
CO/N=C/c1ccc(Oc2ccc(C)cc2)nc1	-17.9%
O=C(NC(c1ccccc1)C(Cl)(Cl)Cl)c1ccccc1 (stereo unspecified)	-9.8%
O=c1[nH]c2c(s1)C(c1ccco1)C1C3CCC(C3)C1S2 (stereo unspecified)	-28.1%
CC(C)CCNC(=O)C12CN(Cc3ccccc3)CC1C(c1cccc([N+](=O)[O-])c1)=NO2 (stereo unspecified)	-12.5%
COCCN(C(=O)c1cccc(OC)c1)c1nnc(-c2ccncc2)s1	-12.3%
Cc1ccc(S(=O)(=O)N2CCN(Cc3ccccc3)CC2)c(C)c1N(C)S(=O)(=O)c1ccccc1	-7.3%
CCNc1nc(OC)nc(Oc2ccc(C(=O)OC)cc2)n1	-5.6%
CC(C)C[C@@H](CC(=O)N[C@@H](CCCN)CC(=O)N[C@@H]1CCCC[C@H]1C(=O)N[C@H](CC(=O)N[C@@H](CCC(=O)O)CC(=O)O)Cc1c[nH]c2ccccc12)NC(=O)[C@@H]1CNCC[C@H]1N	-7.0%
N#Cc1cn(CC(=O)N2CCCc3ccccc32)c2ccccc12	-19.7%
CSc1nc(N)nc(SCCS(=O)(=O)c2ccc(Cl)cc2)c1C#N	-28.6%
(cont.)
SMILES	HPGD inh
CCc1ccc(C(=O)NC(CCSC)C(=O)O)cc1 (stereo unspecified)	5.6%
O=C(N/N=C/c1cc(Br)c(O)c(Br)c1)c1cccc(C(F)(F)F)c1	-5.8%
O=C(CSc1ccc2nnc(-c3ccccc3)n2n1)NCc1ccco1	-4.6%
O=C(Nc1ccccn1)c1cc(-n2cnnc2)ccc1Cl	-1.1%
CNC(=O)c1ccsc1NC(=O)c1ccc2c(c1)CCCC2	?
CC(=O)Nc1ccc(SCC(=O)c2cc(C)n(CC(F)(F)F)c2C)cc1	-16.0%

Some of the compounds tested, so the mix of outcomes need not match the whole.
